EPAC2 ant val: validation of human EPAC2 antagonists | Q8WZA2 | 16,000 compounds, 1.7% hits | Potency, µM (highest dose often 112 µM), for inactives: top-dose activity, negative = inhibition, most hits filed as inhibitors | EPAC2 Rap1B BODIPY-GDP exchange, fluorescence; active means well fitted inhibition curve with a large enough effect; inconclusive means small, poorly fitted or top-dose-only effect; inactive means no such curve, though single readings can be large or run the other way;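 further: 100% = activation by cAMP agonist control; nearly all actives have a fitted effect of over 40% in size; the record reuses the description of the EPAC1 agonist screen; inactives centre near -10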
Target sequence (Q8WZA2 whole entry, looked up): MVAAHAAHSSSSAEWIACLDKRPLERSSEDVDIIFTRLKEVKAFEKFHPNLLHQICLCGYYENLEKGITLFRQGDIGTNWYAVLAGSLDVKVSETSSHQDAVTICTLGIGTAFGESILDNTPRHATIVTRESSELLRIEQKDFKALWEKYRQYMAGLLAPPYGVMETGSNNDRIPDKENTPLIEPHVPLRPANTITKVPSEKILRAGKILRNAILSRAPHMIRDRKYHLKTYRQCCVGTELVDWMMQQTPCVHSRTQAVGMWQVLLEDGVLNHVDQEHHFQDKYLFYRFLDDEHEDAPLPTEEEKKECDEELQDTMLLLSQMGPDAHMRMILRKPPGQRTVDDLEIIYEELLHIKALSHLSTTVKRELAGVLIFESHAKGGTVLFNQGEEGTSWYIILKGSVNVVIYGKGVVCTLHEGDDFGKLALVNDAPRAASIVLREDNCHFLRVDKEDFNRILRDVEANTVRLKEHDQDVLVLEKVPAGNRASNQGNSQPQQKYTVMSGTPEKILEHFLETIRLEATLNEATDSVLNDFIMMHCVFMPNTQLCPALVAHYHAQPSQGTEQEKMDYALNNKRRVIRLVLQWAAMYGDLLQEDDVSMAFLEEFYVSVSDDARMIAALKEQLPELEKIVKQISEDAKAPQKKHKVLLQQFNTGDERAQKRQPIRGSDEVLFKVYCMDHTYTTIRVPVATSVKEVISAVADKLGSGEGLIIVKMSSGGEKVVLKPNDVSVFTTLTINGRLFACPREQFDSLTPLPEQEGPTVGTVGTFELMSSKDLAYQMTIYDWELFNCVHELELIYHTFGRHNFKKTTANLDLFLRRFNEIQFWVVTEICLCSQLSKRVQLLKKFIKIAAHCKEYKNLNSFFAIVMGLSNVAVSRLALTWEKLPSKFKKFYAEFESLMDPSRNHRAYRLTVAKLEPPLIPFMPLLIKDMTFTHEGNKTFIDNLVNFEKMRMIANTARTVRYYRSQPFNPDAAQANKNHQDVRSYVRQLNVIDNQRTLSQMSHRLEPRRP
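Fluorescent exchange read-out: 100 nM EPAC2 with 250 nM RAP1B–BODIPY-GDP and 50 uM GDP; BODIPY-GDP release lowers fluorescence. Read at 480/540 nm every 5 min for 30 min at room temperature; normalized to 6.5 mM cAMP.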
Numbers without * were called inactive; ? = inconclusive; & = joins results of further samples; [ ] = dose if it differs, or a comment. Potency means the concentration at half of the fitted maximal effect. Not all compounds are listed, so the mix of outcomes need not match the whole.

SMILES	EPAC2 ant val
CC(C)C[C@H](NC(=O)[C@H](CCC(N)=O)NC(=O)[C@H](CCCCN)NC(=O)[C@H](CCC(N)=O)NC(=O)[C@@H](N)CCC(=O)O)C(=O)N[C@@H](CCC(N)=O)C(=O)O	?
C/C(Nc1ccc2oc(=O)ccc2c1)=C1/C(=O)CC2[C@@H]1C2(C)C (some centres undefined)	25.0%
CC(COc1ccccc1)N(CCCl)Cc1ccccc1 (centres undefined)	?
CCCCCCCCCCCCCCCC[n+]1ccc(CC(O)c2c(C)[nH]c3ccccc23)c2ccccc21 (centres undefined)	-2.4%
O=c1cnc2cnc(Nc3ccccc3)nc2n1Cc1ccc(F)cc1	6.7%
COc1ccc(C(=O)N2CCC3(CCCN(C(=O)Nc4cccc(F)c4)C3)CC2)cc1	-26.3%
CC(CNC1CCCCC1)OC(=O)c1ccccc1 (centres undefined)	5.9%[56.6 µM]
CN1CCN(c2ncnc3ccc(-c4ccccc4C#N)cc23)CC1	-10.5%
COc1ccccc1CNc1cc(-c2cccc(C#N)c2)ncn1	-19.6%
COc1cccc(Nc2ncc3nc(C)c(=O)n(Cc4cccs4)c3n2)c1	15.1%
N#Cc1cccc(NC(=O)N2CCC3(CC2)CCN(C(=O)c2cccc(F)c2)CC3)c1	-13.2%
Cn1cc(-c2nc3cnc(N4CCNCC4)nc3n(C3CC3)c2=O)c2ccccc21	18.9%
Cc1c(C(=O)N2CC[C@@H]3CCCC[C@H]3C2)sc2ncnc(NCCc3ccccn3)c12	?
Cc1ccc(C(=O)Nc2cnn(-c3ccc(C(=O)N(C)Cc4n[nH]c5c4CCCC5)cc3)c2)c(C)c1	-12.1%
COc1cccc(Cn2c(=O)c(-c3ccc(Cl)cc3)nc3cnc(N(C)C)nc32)c1	-25.8%
Cc1nc(N=Nc2cc(S(=O)(=O)O)c3cc([N+](=O)[O-])cc(S(=O)(=O)O)c3c2)c(COP(=O)(O)O)c(C=O)c1O	?
Cc1cc(C(C)(C)C)cc(C)c1CC1=NCCN1	-14.0%
Cc1cc2ccc(=O)oc2cc1OC[C@@H](O)C(C)(C)O	-11.8%
CCC1COCCS(=O)(=O)N1Cc1ccccc1C (centres undefined)	-26.5%
CN1CCCCC1C(=O)N1CCC(Oc2cccc(CN3CCN(c4ccccn4)CC3)c2)CC1 (centres undefined)	-19.4%
CC1CN(CCNC(=O)C2CCCc3c2[nH]c2ccccc32)Cc2ccccc2O1 (centres undefined)	?
OC/C=C/c1ccccc1	?
Cc1noc(C)c1CC(=O)N1CCOc2c(cc(-c3nc4ccccc4s3)cc2OC2CCOC2)C1 (centres undefined)	-35.4%
Cc1ccc2c(/C=C/c3c[nH]c4ccccc34)ccnc2c1C	-12.6%
C[C@@H](N)C(=O)O	-5.2%&-22.6%
CCCCCCCCCCCCCCC[C@@H](O)[C@H](CO)NC(C)=O	-8.0%[11.4 µM]
COCCn1c(=O)c(-c2ccc(Cl)cc2)nc2cnc(Oc3ccccc3)nc21	-29.1%
CCNc1ncc2nc(-c3ccc(OC)cc3)c(=O)n(Cc3ccc(F)cc3)c2n1	-6.3%
COc1ccc(C(=O)N2CCC[C@@]3(CCN(c4ccccn4)C3)C2)cc1	-20.1%
O=C(Nc1cccc(C2=NCCN2)c1)Nc1cccc(C2=NCCN2)c1	-44.2%

Entries from the list above containing an NH in an aromatic ring:
SMILES	EPAC2 ant val
CCCCCCCCCCCCCCCC[n+]1ccc(CC(O)c2c(C)[nH]c3ccccc23)c2ccccc21 (centres undefined)	-2.4%
Cc1ccc(C(=O)Nc2cnn(-c3ccc(C(=O)N(C)Cc4n[nH]c5c4CCCC5)cc3)c2)c(C)c1	-12.1%
CC1CN(CCNC(=O)C2CCCc3c2[nH]c2ccccc32)Cc2ccccc2O1 (centres undefined)	?
Cc1ccc2c(/C=C/c3c[nH]c4ccccc34)ccnc2c1C	-12.6%

Carrying on.
SMILES	EPAC2 ant val
c1cncc(-c2cncnc2-n2ccnc2)c1	-13.5%
O=C(O)[C@H]1NCCC[C@H]1C(=O)O	-24.6%
Cc1cc(C(=O)O[C@H]2[C@H](C)NS(=O)(=O)[C@H]3C[C@@H]4C=C[C@]23O4)cc([N+](=O)[O-])c1	-1.9%
COc1ccc(-c2nc3cnc(N(C)C)nc3n(C[C@H]3CCCO3)c2=O)cc1	-5.6%
COc1ccccc1-c1cc(NCc2cccc(C)c2)ncn1	?
C[C@]12CCC(=O)C=C1CC[C@H]1[C@@H]3CC[C@](O)(C(=O)CO)[C@@]3(C)C[C@H](O)[C@@]12F	-26.4%&23.5%
COc1ccccc1CNc1nc(-c2cccc(C#N)c2)nc2ccccc12	-16.6%
COc1cccc(CN2C(=O)NC(C)(C3CCN(Cc4cc(F)cc(F)c4)CC3)C2=O)c1OC (centres undefined)	?
CSc1nccc(-c2cc(Cl)c3c(c2)CC(CNC(=O)c2nonc2C)O3)n1 (centres undefined)	-25.6%
CC1(C)C(O)C=C[C@@]2(C)C1CC(=O)O[C@@]1(C)C3=CC(=O)OC(c4ccoc4)[C@]3(C)CCC21 (some centres undefined)	-8.7%
CCNC(=O)CCC(N)C(=O)O (centres undefined)	-18.6%
CC(=O)Nc1cc(C(=O)N2CCN(C(=O)c3ccco3)CC2)cc2ncn(CCc3ccccn3)c12	-19.7%
COc1ccccc1-c1nccc(NC2CCNCC2)n1	-6.0%
CC1=NN(c2ccc([N+](=O)[O-])cc2)C(=O)C1[N+](=O)[O-] (centres undefined)	-16.3%
C=C1/C(=C\C=C2/CCC[C@]3(C)[C@@H]([C@H](C)OCCC(C)(C)O)CC[C@@H]23)C[C@@H](O)C[C@@H]1O	-1.2%

Single entries from the entries so far:
EPAC2 ant val, COc1ccccc1-c1nccc(NC2CCNCC2)n1 : -6.0%
EPAC2 ant val, c1cncc(-c2cncnc2-n2ccnc2)c1 : -13.5%
EPAC2 ant val, CC1(C)C(O)C=C[C@@]2(C)C1CC(=O)O[C@@]1(C)C3=CC(=O)OC(c4ccoc4)[C@]3(C)CCC21 (some centres undefined) : -8.7%

Next part.
SMILES	EPAC2 ant val
CC(=O)NCCNc1ncnc2ccc(-c3ccccc3Cl)cc12	-17.1%
COC(=O)[C@@H]1C[C@H](NC(=O)c2ccccn2)CN1Cc1cccc2ccccc12	-8.7%
O=Cc1ccccc1C=O	?
Cc1c(C(=O)NCC(C)C)sc2ncnc(NCC3CCCO3)c12 (centres undefined)	-2.3%
OCCN1C[C@H](O)[C@@H](O)[C@H](O)[C@H]1CO	-10.4%
CC(C)CCCCCCc1ccc(O)cc1	?
COS(C)(=O)=O	2.2%
CCCCC[C@H]1CN(Cc2ccccc2)C(=O)[C@@H]1CC(=O)NCc1ccc(OC)cc1	22.4µM*
O=C(c1cccc(F)c1)N1CCC2(CCCN(c3ccccn3)C2)CC1	-25.1%
COc1ccc(CN2[C@@H](CC(C)=O)c3cc(C(F)(F)F)ccc3S2(=O)=O)cc1	-21.6%
C[C@H](NC[C@H](O)CP(=O)(O)Cc1ccccc1)c1ccc(Cl)c(Cl)c1	7.3%&-6.7%
COc1ccc2[nH]cc(CCNc3ncncc3-c3ccc(N(C)C)cc3)c2c1	-38.5%
Cc1ccc2cccc(O)c2n1	14.4%
O=C1C[C@H](c2ccccc2)Oc2cc(O)cc(O)c21	-14.2%
Nc1ccc(N2C(=O)c3ccccc3C2=O)c(Cl)c1	?

As a short view, 3 of the compounds above.
SMILES	EPAC2 ant val
CC(C)C[C@H](NC(=O)[C@H](CCC(N)=O)NC(=O)[C@H](CCCCN)NC(=O)[C@H](CCC(N)=O)NC(=O)[C@@H](N)CCC(=O)O)C(=O)N[C@@H](CCC(N)=O)C(=O)O	?
C/C(Nc1ccc2oc(=O)ccc2c1)=C1/C(=O)CC2[C@@H]1C2(C)C (some centres undefined)	25.0%
CC(COc1ccccc1)N(CCCl)Cc1ccccc1 (centres undefined)	?

Part of the list above in order of molecular weight, lowest first.
SMILES	EPAC2 ant val
COS(C)(=O)=O	2.2%
O=Cc1ccccc1C=O	?
OCCN1C[C@H](O)[C@@H](O)[C@H](O)[C@H]1CO	-10.4%
CC(C)CCCCCCc1ccc(O)cc1	?

More structures.
SMILES	EPAC2 ant val
CCOC(=O)C1=C(C)NC(c2ccccc2)=C(C(=O)OCc2ccc([N+](=O)[O-])cc2)[C@@H]1C#Cc1ccccc1	-21.7%
COC(=O)C[C@H]1c2cc(F)ccc2S(=O)(=O)N1Cc1ccccc1	-6.0%
Cc1cccc2cc(CNCCCN3CCCC3=O)c(N3CCN4CCCC4C3)nc12 (centres undefined)	-27.1%
CCC1CN(CCNC(=O)c2ccccc2-n2cccn2)Cc2cc(OC)ccc2O1 (centres undefined)	-8.0%
FC(F)(F)c1ccccc1-c1nccc(N2CCNCC2)n1	-27.4%
Cc1c(O)cccc1C(=O)N[C@@H](CSc1ccccc1)[C@H](O)CN1C[C@H]2CCCC[C@H]2C[C@H]1C(=O)NC(C)(C)C	?
c1cncc(OC2CCN(Cc3ccc4c(c3)CN(Cc3ccc5c(c3)CCO5)CCO4)CC2)c1	-26.7%
CC(=O)OC1CC(OC(C)=O)[C@]2(C)C(CC(=O)[C@]3(C)C2CC[C@@]2(C)C(C(=O)O)OC(=O)C4OC423)C1(C)C (some centres undefined)	-8.1%
C=C[C@@H](C)N(Cc1ccc(OC)cc1)S(=O)(=O)N(Cc1ccccc1)[C@H](C=C)C(C)C	?
Cc1cccc(CNC(=O)c2cnn(-c3nccc(-c4cccs4)n3)c2C(C)C)n1	-23.1%
COCC(=O)N1CCC2(CC1)CCN(c1cccc(-c3ccccc3)c1)CC2	-25.1%
COc1cc(OC)c(C(=O)CCCN2CCCC2)c(OC)c1	-4.3%[56.6 µM]
CC(=O)Oc1ccc2c(c1OC(C)=O)OCC1(O)Cc3c(cc(OC(C)=O)c(OC(C)=O)c3OC(C)=O)C21 (centres undefined)	-10.8%
C[N+]1(C)[C@@H]2CC(OC(=O)C(O)(c3cccs3)c3cccs3)C[C@H]1[C@@H]1O[C@@H]12 (some centres undefined)	5.2%
Cc1cccc2c(C(O)c3cn(C)c4ccccc34)c[nH]c12 (centres undefined)	-28.6%
CC1CN(CC(=O)N2CCN(Cc3nccn3C)CC2)Cc2cc(Cl)ccc2O1 (centres undefined)	-28.1%
COc1ccc(CN(C)CCn2cc(C(=O)N3CCSCC3)nn2)cc1C	-9.2%
O=C(c1csnn1)N1CCC2(CCN(Cc3ccccc3)CC2)CC1	-17.4%
COc1cc2c(cc1OC)C1(O)C(=O)c3ccc(O)c(C(=O)O)c3OC1CO2 (centres undefined)	-9.9%
COc1ccc(-c2cc(=O)c3ccccc3o2)cc1	-18.6%
COc1ccc2oc(-c3ccccc3)c(OC)c(=O)c2c1	?
CC(=O)N1CCC2(CCCN(Cc3nccs3)C2)CC1	-18.2%
CN(Cc1ccco1)c1ncncc1-c1ccccc1Cl	5.2%
Cc1cc2ccccc2cn1	-24.0%
CC(N)C12CC3CC(CC(C3)C1)C2 (centres undefined)	-3.6%
NS(=O)(=O)c1cc2c(cc1Cl)NC(Cc1ccccc1)NS2(=O)=O (centres undefined)	-8.4%
COCCNc1nc(-c2ccc(C(=O)N(C)C)cc2)nc2ccccc12	?
CC(=O)NO	-15.7%
Cn1c(=O)c(-c2ccccc2)nc2cnc(N3CCNCC3)nc21	-20.6%
CC(C)[C@H](O)CC[C@@H](C)C1CC[C@H]2C3CC=C4C[C@@H](O)CC[C@]4(C)C3CC[C@]12C (some centres undefined)	-17.1%[151 µM]
CC(=O)Nc1ccc(OC(=O)c2ccccc2O)cc1	?
O=C(NCCc1ccccn1)C1CC12CCN(C(=O)c1cccc(C(F)(F)F)c1)CC2 (centres undefined)	5.4%
O=c1[nH]c(=O)n([C@H]2C[C@H](O)[C@@H](CO)O2)cc1I	-16.6%[56.6 µM]
CCCCCCCCCCCCCCCCCCN(CCCCCCCCCCCCCCCCCC)c1ccc(C=O)cc1	-0.4%
CCOC(=O)C[C@H]1c2cc(F)ccc2S(=O)(=O)N1Cc1cc(OC)c(OC)c(OC)c1	13.8%
NC(N)=N[C@@H](CCC(=O)O)C(=O)O	10.5%
Cc1c(Cl)cccc1Nc1ccccc1C(=O)O	?
COc1ccc(CNc2nc(-c3ccc(C(=O)N(C)C)cc3)nc3ccccc23)c(OC)c1	-18.9%
COC(=O)c1ccccc1-c1cc(C)cc2c1OC(CNC(=O)c1occc1C)C2 (centres undefined)	?
COc1ccccc1CN1CC2(CCN(C(=O)c3cc(C(F)(F)F)cc(C(F)(F)F)c3)CC2)C1	?
